Bioassay records deposited in PubChem BioAssay by National Center for Advancing Translational Sciences (NCATS).
TRPML1 ag – qHTS for Agonists of the Human Mucolipin Transient Receptor Potential 1 (TRPML1); TRPML1-expressing cells, Ca2+ dye fluorescence, FDSS; host cell line not named in the record; reference of the full effect not given here; activation, % (no concentration beside the values); AID 624414, 2012; Mucolipin-1 (Homo sapiens), Q9GZU1; 410,000 tested, 0.12% active; in the data active = activation above about 50%; inconclusive = about 30% to 50%; inactive = below about 30%; further: 0% is about no effect; the text of the record puts the active cut at 80%
Target sequence (Q9GZU1 whole entry, looked up): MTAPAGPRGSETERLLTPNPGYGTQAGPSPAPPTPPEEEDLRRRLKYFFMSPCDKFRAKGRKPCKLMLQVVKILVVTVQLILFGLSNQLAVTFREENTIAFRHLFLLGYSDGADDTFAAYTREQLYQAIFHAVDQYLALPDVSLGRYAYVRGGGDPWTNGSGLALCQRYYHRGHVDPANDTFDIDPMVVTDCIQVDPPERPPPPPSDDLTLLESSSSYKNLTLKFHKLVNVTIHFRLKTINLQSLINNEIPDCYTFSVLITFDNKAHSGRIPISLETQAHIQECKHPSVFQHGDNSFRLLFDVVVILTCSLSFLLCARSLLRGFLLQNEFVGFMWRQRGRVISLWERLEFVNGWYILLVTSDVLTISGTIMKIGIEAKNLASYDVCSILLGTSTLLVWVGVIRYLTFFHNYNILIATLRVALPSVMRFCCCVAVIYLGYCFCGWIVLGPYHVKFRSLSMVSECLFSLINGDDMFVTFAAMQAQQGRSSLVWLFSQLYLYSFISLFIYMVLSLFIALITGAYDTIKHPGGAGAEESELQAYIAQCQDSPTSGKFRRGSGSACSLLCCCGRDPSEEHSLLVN
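Cells: TRPML1-DL, 1X Tet inducer, ~16 h at 37 degrees C/5% CO2. Dye: ABD Ca8 no-wash + quencher, 45-90 min RT. Read: 10 s baseline, compound add, 110 s agonist phase; 54-4 EC80 (4uM final), 110 s antagonist phase.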
Menin MLL FP FL – qHTS Assay for Inhibitors Targeting the Menin-MLL Interaction in MLL Related Leukemias: Competition With Fluorescein Labeled MLL-derived Peptide; FP activity change, % at 61.4 µM; Fluorescence polarization, fluorescein-MLL peptide displacement from menin; 290,000 tested, under 10 active; inconclusive = falling polarisation curve, or a change in total fluorescence; inactive = total fluorescence flat and polarisation flat or rising; no compound was filed as active; the % refers to the polarisation; negative = inhibition;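 further: % of control where 0% means no effect; inhibitors lower the polarisation; unlabelled MLL peptide was the positive control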
gsp antagonist – qHTS for Antagonists of gsp, the Etiologic Mutation Responsible for Fibrous Dysplasia/McCune-Albright Syndrome: qHTS; gsp-mutant cells, cAMP HTRF, 30 min; control for the full effect not named in the record; Potency, µM (top dose mostly 76.9 µM), without a hit: top-dose activity change, negative = inhibition, usual class: inhibitors; 340,000 tested, 0.4% active; AID 624288, 2012; active = falling curve of any shape with a large fitted effect; inconclusive = falling curve, mostly with a smaller effect; inactive = flat or rising curve; cell line not stated here;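 further: intracellular cAMP measured with PDE inhibitor Ro 20-1724 present during compound exposure; potency means the concentration at half of the fitted maximal effect; on the % scale 0 is the no-effect control and ±100 the full control effect; nearly all actives have a fitted effect of over 65% in size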
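HTRF cAMP read-out (cAMP-d2 plus anti-cAMP antibody-K in lysis buffer, 30 min RT). Before lysis, cells are exposed to compounds with […] for 30 min at 37C in DPBS containing Ca/Mg, BSA and Tween 20.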
TRPML1 inh – qHTS for Inhibitors of the Human Mucolipin Transient Receptor Potential 1 (TRPML1) | activity change, negative = inhibition, % (concentration not given with the values) | Mucolipin-1 (Homo sapiens), Q9GZU1 | TRPML1-inducible cells, Ca2+ dye fluorescence, FDSS; hits give low values; inhibition of EC80 agonist-evoked calcium signal | 390,000 tested, 0.02% active | AID 624415, 2012; in the data active means activity change below about -50%; inconclusive means about -30% to -50%; inactive means above about -30%;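 further: stimulus is agonist 54-4 at its EC80 concentration; on the % scale 0 is the no-effect control and ±100 the full control effect; compound concentration not given in the record; the text of the record puts the active cut at -80%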
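Calcium fluorescence in TRPML1-DL cells induced overnight with Tet: a 110 s read after compound pin addition, then a 110 s antagonist read after challenge with 54-4 at 4 uM final (EC80).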
gsp ag – qHTS for Agonist of gsp, the Etiologic Mutation Responsible for Fibrous Dysplasia/McCune-Albright Syndrome: qHTS; Potency, µM (highest dose often 76.9 µM), inactives show at the top dose activation (cAMP increase), usual class: activators; gsp mutant cells, cAMP HTRF, 30 min; control for the full effect not named in the record; 340,000 tested, 0.13% active; active = well fitted activation curve with a large enough effect; inconclusive = small, poorly fitted or top-dose-only effect, or another doubt; inactive = no such curve, though single readings can be large or run the other way; cell line not stated here;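 further: phosphodiesterase inhibitor Ro 20-1724 added with compounds to block cAMP breakdown; potency means the concentration at half of the fitted maximal effect; nearly all actives have a fitted effect of over 60% in size; about a fifth of the inactives were tested at one dose only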
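Cells in DMEM/10% FBS with G418 were pretreated with compounds in DMSO plus […] (300 uM stock) for 30 min at 37C. cAMP was measured by HTRF (cAMP-d2 plus anti-cAMP antibody-K) after 30 min at room temperature.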
ClpP mod – qHTS Assay for Activators of ClpP | ATP-dependent Clp protease proteolytic subunit (Bacillus subtilis (strain 168)), P80244 | purified B. subtilis ClpP, FRET peptide cleavage, 20 min | Potency, µM (doses to about 57.5 µM), without a hit: at the top dose activity change, negative = active | 340,000 tested, 1.9% active | AID 651965, 2013; active = well fitted falling curve with a large enough effect; inconclusive = small, poorly fitted or top-dose-only effect; inactive = no such curve, though single readings can be large or run the other way; further: potency means the concentration at half of the fitted maximal effect; the source files actives as falling curves though it sought activators and does not explain the sign; nearly all actives have a fitted effect of over 65% in size; many hits overshoot -100%
Target sequence (P80244 whole entry, looked up): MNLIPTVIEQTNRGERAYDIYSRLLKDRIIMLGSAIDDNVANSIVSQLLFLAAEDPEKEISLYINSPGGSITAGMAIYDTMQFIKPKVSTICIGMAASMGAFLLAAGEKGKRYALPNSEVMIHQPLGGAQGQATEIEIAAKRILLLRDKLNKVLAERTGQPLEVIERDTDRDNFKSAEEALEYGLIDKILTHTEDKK
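Buffer: 100 mM Tris/HCl pH8, 100 mM KCl, 0.05% low protease BSA, 2.5% glycerol, 0.01% Tween-20. ClpP 10 microg/mL final; 20 min RT; delta FRET normalized to ADEP and DMSO controls.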
An asterisk follows results filed as active; ? = inconclusive; . = not tested or not shown; & = joins results of further samples; [ ] = remark or other dose.

Values run as follows: TRPML1 ag, TRPML1 inh, ClpP mod, Menin MLL FP FL, gsp antagonist, gsp ag
> CCN(CC)C(=S)SSC(=S)N(CC)CC
  3.5&4.9, -10, 1.0%&-0.2%, -0.8, -5%, .
> Cc1ccc(S(=O)(=O)N2[C@@H](c3ccccc3F)C(C(=O)O)=CC[C@H]2c2cccs2)cc1
  -0.2, -5, -1.1%, ., -3%, 3%
> Cn1cnnc1Sc1cc(N2CCN(S(=O)(=O)c3ccc(Cl)c(Cl)c3)CC2)ccc1[N+](=O)[O-]
  -0.6, -13, 0.2%, 2.5, -17%, 0%
> COc1cc(OC)c2c(c1)OC(c1ccc(OC)c(OC)c1)C(O)C2=O (stereo unspecified)
  1.0, 0, -13%, 1.4, -6%, -62%[inhibitor]
> CCN1CC(CN(C)Cc2nc(-c3ccco3)oc2C)CC1=O (stereo unspecified)
  0.4, 13, 0.0%, -9.1, -3%, -2%
> CC1(C)OC2CC3C4CCC5=CC(=O)CCC5(C)C4(F)C(O)CC3(C)C2(C(=O)CO)O1 (stereo unspecified)
  0.3, -8, ., ., -3%, -26%
> COc1cccc(NC(=O)C2C(c3ccccc3)C2(Cl)Cl)c1 (stereo unspecified)
  ., ., -3.2%, -0.1, -10%, 16%
> COc1cc(Br)cc(/C=N/NC(=O)Cc2ccccc2)c1O
  -0.6, -6, -14%, ., 5%, -18%[15.4 µM]
> O=C(Nc1ccc(F)cc1)c1ccccc1CC[N+](=O)[O-]
  -0.5, -22, ?, 7.3, 9%, 13%
> O=C1CCCC/C1=N\Nc1ccc(OCc2ccccc2)cc1
  0.7, -1, ., -0.9, 7%, -1%[15.4 µM]
> COC(=O)[C@H]1C[C@@H]1[C@H](NS(=O)(=O)c1ccc2ccccc2c1)c1ccccc1
  -0.3, 22, -0.6%, -4.4&-0.4, -7%, .
> Cc1ccc(-n2ncc3c(NC(C)c4ccccc4)ncnc32)cc1 (stereo unspecified)
  -0.2, -12, 4.1%, ., ., .
> CSc1cc(C)n(-c2ccccc2)c(=S)c1C(C)=O
  1.0, -3, -0.3%, 3.6, -10%, 10%
> CCN(CC)C(=S)NC(=O)c1ccc(OC)c(Br)c1
  -0.6, -10, 0.3%, 1.4, -2%, 3%[15.4 µM]
> O=C(O)CN1C(=O)COc2ccc(S(=O)(=O)N3CCCCCC3)cc21
  -0.3, 7, -0.8%, 1.6, 17%, ?
> Cc1cc(C)cc(NC(=O)COC(=O)c2ccc3c(c2)OCCO3)c1
  0.6, 14, -0.3%, ., 8%, 8%
> COc1ccc(-c2onc(C)c2-c2ccc(C(=O)OC(C)C)o2)c(O)c1
  1.8, -3, -0.2%, 3.4, -21%, 12%[15.4 µM]
> COc1ccc(C(=O)Nc2ccc([N+](=O)[O-])cn2)cc1OC
  0.1, -30, 1.8%, 4.8, 10%, 10%
> CCC(C(=O)NCc1ccco1)N(C(=O)CNS(=O)(=O)c1ccc(C)cc1)c1ccccc1OC (stereo unspecified)
  0.7, -5, 32µM*, -4.3, 10%, -83%[inhibitor]
> CCN(CC)CCC(O)(c1ccccc1)C1CCCCC1 (stereo unspecified)
  0.3, -6, -1.0%, -2.0, 8%, -36%
> NC1=NC(=O)C(CC(=O)Nc2ccc3c(c2)OCO3)S1 (stereo unspecified)
  1.6, -19, ., 6.9, 13%, -3%[15.4 µM]
> CC(C)C(OC(=O)c1ccc(Cl)nc1)C(=O)NC1CCCCC1 (stereo unspecified)
  2.7, -15, ., -0.6, 12%, 14%
> COC(=O)c1cc(S(=O)(=O)NCc2cc(OC)c(OC)c(OC)c2)cn1C
  -0.4, -17, -1.2%, -0.1, 9%, -30%
> O=c1[nH]cc(S(=O)(=O)N2CCN(c3ccc(F)cc3)CC2)c(=O)[nH]1
  -0.2, 5, 0.1%, ., ., -25%
> C=CCNC(=O)c1onc(CSc2cccc3ccccc23)c1C(=O)O
  -1.1, -15, -0.8%, 2.3, -19%, .
> CCOC(=O)CSc1nc2c(sc(=S)n2-c2ccccc2OC)c(=O)n1Cc1ccco1
  4.7, 9, 0.2%, -0.7, -19%, 17%
> CC(=O)c1c(C)oc2ccc(N(C(C)=O)S(=O)(=O)c3cccc4cccnc34)cc12
  1.3, -8, ., 6.9, -17%, -8%[15.4 µM]
> CCOC(=O)N1CCN(CC(=O)Nc2nc3ccc(OC)cc3s2)CC1
  ., ., -1.0%, 0.0, -3%, -40%[inhibitor]
> NC(=S)NN=Cc1nccc2c(N)cccc12
  -0.6, -15, 2.0%, ., ., -26%
> Cc1cc(-c2ccc(S(=O)(=O)N(C)c3ccc(C)c(C)c3)s2)on1
  2.7, 57, 5.0%, ., 0%, -129%[inhibitor]
> CCCN1CCC(NC(=O)Nc2ccccc2C(=O)OC)CC1
  0.0, 12, 28µM*, -2.3, 0%, 24%
> COc1ccc(/C=C2\N=C3CCCCCN3C2=O)cc1
  0.3, -24, ., -1.3, 12%, 25%[15.4 µM]
> COc1ccccc1CNC(=O)COC(=O)c1ccccc1-c1ccccc1
  3.0, 1, -3.9%, ., ?, ?
> S=c1nc(-c2cc(Cl)cc(Cl)c2)[nH][nH]1
  0.2, 29, 0.1%, 3.0, -10%, 3%[15.4 µM]
> COc1ccc(-c2nc(SCC(=O)Nc3cccc(S(N)(=O)=O)c3)n[nH]2)cc1
  0.7, -17, ., ., 1%, 18%[15.4 µM]
> O=C(COC(=O)c1ccc(Cl)nc1)Nc1cccnc1Cl
  -0.5, 34, -0.6%, ., 2%, 16%
> O=C(CSc1nnc(Cn2nnc3ccccc32)o1)Nc1cccc(Cl)c1
  2.5, 3, -1.7%, -0.6, -15%, -19%
> COCCOC(=O)C1=C(C)Nc2nc(C)nn2C1c1ccc(F)cc1 (stereo unspecified)
  0.1&0.2, -13&8, 1.3%, 9.2, -3%&-4%, ?
> CCc1nn(CC(=O)N2CCN(c3cccc(C)c3)C(C)C2)c(=O)c2cc3sccc3n12 (stereo unspecified)
  0.5, 9, -1.9%, ., ., .
> CC1CCN(CC(=O)Nc2cc(C(F)(F)F)ccc2Cl)CC1
  2.0, 38, -2.5%, -1.3, 5%, ?
> Cc1cc(Cl)ccc1OCCCC(=O)NCCc1nnc2ccccn12
  -1.0, -2, -3.0%, 0.9, -19%, -9%
> CO/N=C/NC(=O)c1c(OC)ccnc1Oc1ccccc1
  0.9, 30, -2.8%, -2.0, -1%, -58%[inhibitor]
> O=C(NCCCN1CCN(c2ccccc2F)CC1)C1CC(=O)N(C2CCCC2)C1 (stereo unspecified)
  -0.8, -13, 1.1%, 4.0, 13%, -2%
> Cn1c(CCN2CCOCC2)nc2cc(NS(=O)(=O)c3ccccc3)ccc21
  0.8, 7, ., -1.1, -1%, 14%[15.4 µM]
> CC1C(=O)C(C)(C)C(=O)OC1c1ccc([N+](=O)[O-])cc1 (stereo unspecified)
  1.8, 36, 0.7%, -3.8, -1%, -17%
> Cc1ccc(S(=O)(=O)N2[C@H](c3ccc(Cl)cc3)CC(=O)[C@@H]3CN(S(=O)(=O)c4ccccc4C)[C@H](c4ccc(Cl)cc4)C[C@@H]32)cc1
  0.6, 25, 1.7%, ., ., .
> CC(C)CC(NC(=O)C1CCC(=O)N1C(=O)OCc1ccccc1)C(=O)NC(Cc1ccccc1)C(N)=O (stereo unspecified)
  -0.6, 0, ., 2.6, 10%, -18%[15.4 µM]
> CC1(C)CC(Cc2cccc(C(F)(F)F)c2)N(C(=O)OC(C)(C)C)C1 (stereo unspecified)
  1.3, -4, -3.0%, ., ., -83%[inhibitor]
> CC/C(=N\O)C(C)(C)/[N+]([O-])=C/c1ccc(Br)cc1
  0.1, 0, -6.7%, 0.2, 5%, -46%[inhibitor]
> O=C(Nc1cccc(Cl)c1)c1ccc(S(=O)(=O)NCC2CCCO2)cc1 (stereo unspecified)
  0.0, 10, 1.9%, -0.6, -11%, 3%
> CC(=O)c1cccc(CN2CCC(CO)(Cc3ccccc3)CC2)c1
  1.4, 12, -2.8%, -5.2, -9%, -103%[inhibitor]
> COc1ccc(C)cc1NC(=O)C(=O)N1CCCC1
  0.2, 20, ., -3.9, -2%, 3%[15.4 µM]
> COc1cccc(NC(=O)NNC(=O)c2ccc3c(c2)NC(=O)C(C)(C)O3)c1
  0.0, 5, ., ., -3%, -4%[15.4 µM]
> Cc1ccccc1N1CCN(C(=O)NCc2cccc(Cl)c2)CC1
  1.9, 33, ., -2.8, -13%, 7%[15.4 µM]
> O=C(CSc1ccc(Br)cc1)Nc1cccc(S(=O)(=O)N2CCOCC2)c1
  0.7, 15, -2.7%, ., -6%, 2%
> CN(C)/C(Cn1cncn1)=C1/N=C(c2ccccc2)OC1=O
  0.0, 2, -2.3%, -2.8, 8%, -23%
> Cc1cccc(C)c1OCC(O)CN1CCN(c2ccccc2)CC1 (stereo unspecified)
  -0.1, 27, 1.6%, 0.1, -1%, ?
> Cc1cccc(N(CC(=O)NC(C)C)C(=O)CCC(=O)Nc2ccccn2)c1
  0.4, -2, -1.3%, -7.3, 10%, 2%
> Cc1cc(C(=O)CN2C(=O)c3ccccc3C2=O)c(C)n1C1CC1
  -0.5, -7, 0.1%, 7.5, 5%, 0%
> COc1ccc(C)cc1NC(=O)Cn1c(=O)oc2ccccc21
  0.2, -8, ., -14, 3%, -21%

Further entries follow.
Values run as follows: TRPML1 ag, TRPML1 inh, ClpP mod, Menin MLL FP FL, gsp antagonist, gsp ag
> CCC(=O)N1c2ccc(S(=O)(=O)N3CCOCC3)cc2CC1C (stereo unspecified)
  0.1, 0, 0.8%, ., -13%, 21%
> COc1ccc(-c2cn(CCC(=O)NCc3ccc(C)cc3)c(-c3ccncc3)n2)cc1
  0.7, -4, -14%, 2.8, 2%, 0%
> COc1ccc(CNC(=O)C2CCCN2CCc2ccccc2)cc1OC (stereo unspecified)
  -0.1, -9, ., 4.7, ., -5%[15.4 µM]
> CC(=O)c1cccc(NS(=O)(=O)c2ccc(N/C=C/C(=O)c3ccc(F)cc3)cc2)c1
  0.5, 9, 1.6%, ., ?, -2%[15.4 µM]
> CC1CCCN(Cc2nc3c(c(=O)n(C)c(=O)n3C)n2Cc2ccc(Cl)cc2Cl)C1 (stereo unspecified)
  -0.4, -8, -1.8%, ., ., .
> Cc1nc2ncnn2c(Nc2ccc3c(c2)OCO3)c1Cc1ccccc1
  3.0, -13, 0.6%, 2.1, -9%, 23%
